VDR inhibitor: vitamin D3 receptor (human) inhibition; P11473; VDR-SRC2-3 peptide fluorescence polarization, 2 h; Potency, µM, without a hit: max response, negative = inhibition, actives largely listed as inhibitors; 400,000 tested, 0.93% active; AID 504847; active means well fitted inhibition curve with a large enough effect; inconclusive means small, poorly fitted or top-dose-only effect, or another doubt; inactive means no such curve, though single readings can be large or run the other way; further: series mostly up to about 120 µM
Target sequence (P11473 whole entry, looked up): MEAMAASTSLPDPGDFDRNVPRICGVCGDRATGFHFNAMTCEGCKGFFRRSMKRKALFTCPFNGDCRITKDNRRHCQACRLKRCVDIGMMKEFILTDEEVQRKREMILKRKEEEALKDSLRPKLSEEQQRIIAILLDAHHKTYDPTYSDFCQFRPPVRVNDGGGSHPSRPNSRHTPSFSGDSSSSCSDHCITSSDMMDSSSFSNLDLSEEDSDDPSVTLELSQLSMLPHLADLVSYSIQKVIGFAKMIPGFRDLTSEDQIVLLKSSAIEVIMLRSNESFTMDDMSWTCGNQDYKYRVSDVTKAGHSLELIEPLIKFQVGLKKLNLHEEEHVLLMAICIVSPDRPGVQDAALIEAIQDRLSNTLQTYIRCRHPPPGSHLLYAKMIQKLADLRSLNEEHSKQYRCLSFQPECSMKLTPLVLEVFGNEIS
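Inhibition of the VDR/SRC2-3 peptide interaction is quantified by fluorescence polarization. Compounds (23 nl, pintool) incubate with the reagents for 2 hours at ambient room temperature.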
The depositor's hits bear a star; ? = inconclusive. On the % scale 0 is the no-effect control and ±100 the full control effect; potency means the concentration at half of the fitted maximal effect.

VDR inhibitor | SMILES
-1% | CCCc1nn2c(=O)cc(COC(=O)c3ccccc3NC(=O)c3cccs3)nc2s1
12% | O=C(Nc1cccc(C(=O)N2CCN(Cc3ccccc3)CC2)c1)c1ccccc1
45µM* | CCCCCCCC1CC(/C(C)=N/NC(N)=O)OC1=O (stereo not drawn)
? | COC(=O)C(=Cc1ccc(-c2ccsc2C(=O)OC)o1)C(=O)OC
-22% | CCOc1ccc(C(=O)N2CCN(S(=O)(=O)c3ccc4c(c3)OCCO4)CC2)cc1OCC
4% | CCCOc1ccc(C(=O)NCCCn2ccnc2)cc1
-3% | Cc1cccc(OCC(=O)Nc2ccc3c(c2)OCCO3)c1
-11% | CC(=O)Nc1ccc(N=Cc2ccc(OCc3ccccc3)cc2)cc1

Taken from above:
Cc1cccc(OCC(=O)Nc2ccc3c(c2)OCCO3)c1 in VDR inhibitor shows -3%
CC(=O)Nc1ccc(N=Cc2ccc(OCc3ccccc3)cc2)cc1 in VDR inhibitor shows -11%
CCCc1nn2c(=O)cc(COC(=O)c3ccccc3NC(=O)c3cccs3)nc2s1 in VDR inhibitor shows -1%

(further entries)
VDR inhibitor | SMILES
-6% | COc1cccc(/C=N/NC(=O)CNC(=O)/C=C\c2ccccc2)c1O
-10% | CC1CCN(C(=O)COC(=O)c2ccc3c(c2)OCO3)CC1
20% | O=C(CN(Cc1ccc2c(c1)OCO2)C(=O)CNS(=O)(=O)c1ccccc1)NCc1ccco1
-7% | CC(C(=O)c1ccccc1)[n+]1cccc(Br)c1 (stereo not drawn)
-2% | CSc1ncccc1C(=O)N1CCCC(CCC(=O)NCc2ccccc2F)C1 (stereo not drawn)
-18% | CCOc1ccc(NC(=O)Cn2nnc(-c3ccc(C(N)=O)cc3)n2)cc1S(=O)(=O)N1CCCC1
-13% | CCCCCOc1ccc(CN2CCOCC2)cc1Cl
-12% | CC(C)Oc1ccc(CNC(=O)c2ccc3nc(SCc4ccc(F)cc4)n(C)c3c2)cc1
-9% | CCC(C)(C)NC(=O)C(c1cccnc1)N(C(=O)c1csnn1)c1ccc(C)cc1 (stereo not drawn)
-1% | COc1ccc(NCCC(O)c2ccc(Cl)cc2)cc1 (stereo not drawn)
-8% | c1ccc(CCc2ccccc2-c2nc(-c3ccccn3)no2)cc1
-11% | O=C(COC(=O)c1ccc(Cl)nc1)Nc1ncc(Cl)cc1Cl
2% | CCOc1ccccc1CN1CCCC(CNC(=O)Cc2ccc(OC)cc2)C1 (stereo not drawn)
-1% | CCOc1ccc(CN(CC)C(=O)Cc2c[nH]c3ccccc23)cc1OC
3% | CC(=O)Nc1ccc(NC(=O)CN2C(=O)CN(C)C(=O)c3ccccc32)cc1
-4% | C=C(C)C(COc1c2occc2cc2ccc(=O)oc12)OC(C)(C)C(O)COc1c2occc2cc2ccc(=O)oc12 (stereo not drawn)
8% | O=c1c(-c2ccc(O)cc2)coc2c([C@@H]3O[C@H](CO)[C@@H](O)[C@H](O)[C@H]3O)c(O)ccc12
7% | O=C(N/N=C/c1coc2ccc(Cl)cc2c1=O)c1ccncc1
3% | CCOc1ccc(OCCN2C(=O)c3ccccc3C2=O)cc1
-15% | COc1cc(/C=N/NC(=O)C(=O)NCC2CCCO2)ccc1O (stereo not drawn)
-20% | CN(c1ccccc1)c1ccc(/C=N/N2CCOCC2)cc1
3% | CCOc1ccccc1N(C)S(=O)(=O)c1ccc2c(c1)CCN2C(=O)CCC(=O)O
-14% | CC(C)Cn1c(N)c(C(=O)COC(=O)c2ccc3ccccc3n2)c(=O)n(C)c1=O
-8% | COc1cccc(C(=O)N2CCN(C(=O)C3CC3)CC2)c1
1% | O=C(CSc1ccc(-c2ccccc2)nn1)NCC1CCCO1 (stereo not drawn)
5% | CCC(C)(C(=O)NC1CCCCC1)N(C(=O)c1cnccn1)c1c(C)n(C)n(-c2ccccc2)c1=O (stereo not drawn)
7% | O=C(CN1CCOCC1)NCc1ccc(F)cc1
3% | COc1ccc(/C=N/NC(=O)c2ccc(COc3cccc4cccnc34)cc2)cc1OC
-11% | Cc1ccccc1NC(=O)CCN1CCN(C)CC1
5% | CN1C(C)(C)c2ccccc2OS1(=O)=O
5% | COC(=O)C(CSCc1ccccc1)NC(=O)CSc1nc(N)cc(=O)[nH]1 (stereo not drawn)
32µM* | Cc1ccc2cc(C3CC(c4ccco4)=NN3C(=O)CCC(=O)O)c(Cl)nc2c1 (stereo not drawn)
1% | Cc1cccc(NC(=O)Nc2cccs2)c1C
79µM* | N#Cc1c(NC(=O)Cn2nc(C(F)(F)F)c3c2CCCC3)sc2c1CCC2
-12% | CC(C)(C)NC(=O)NC(=O)COC(=O)CCCc1c[nH]c2ccccc12
5% | Cc1ccc(CNC(=O)c2ccc3c(c2)CCN3S(=O)(=O)c2ccccc2)cc1
10% | O=C1CC(c2ccccc2)C(=O)N1c1cccc(O)c1 (stereo not drawn)
-1% | Cc1nc(NC(=O)CSc2nnc3ccccn23)c(Cl)cc1Cl
17% | O=C1N/C(=N\c2ccccn2)SC1Cc1ccc(Cl)cc1 (stereo not drawn)
3% | O=C(C1CCN(S(=O)(=O)c2ccc(Br)s2)CC1)N1CCN(C2CCCCC2)CC1
6% | CCNS(=O)(=O)c1ccc(NC(=O)c2cc(C(F)(F)F)nn2C)cc1
-11% | CCCn1nnnc1NCc1cccn1C
3% | Cc1ccc(C)c(NC(=O)c2cnccn2)c1
10% | CC(c1nccs1)N(C)C(=O)c1cn(Cc2cccc3ccccc23)nn1 (stereo not drawn)
-15% | CC(C)Cc1nnc(NC(=O)CCN2C(=O)c3ccccc3C2=O)s1
20% | NC(=O)NCc1ccc(Cl)cc1
1% | CCOC(=O)c1nnn(-c2nonc2N)c1-c1cccs1
14% | CC1CC(C)CN(S(=O)(=O)c2ccc(NN)nc2)C1 (stereo not drawn)

Rewritten tab-delimited: 6 of the compounds above.
molecule	VDR inhibitor
Cc1ccc(C)c(NC(=O)c2cnccn2)c1	3%
CC(c1nccs1)N(C)C(=O)c1cn(Cc2cccc3ccccc23)nn1 (stereo not drawn)	10%
CC(C)Cc1nnc(NC(=O)CCN2C(=O)c3ccccc3C2=O)s1	-15%
NC(=O)NCc1ccc(Cl)cc1	20%
CCOC(=O)c1nnn(-c2nonc2N)c1-c1cccs1	1%
CC1CC(C)CN(S(=O)(=O)c2ccc(NN)nc2)C1 (stereo not drawn)	14%

The listing continues:
VDR inhibitor | SMILES
-9% | Cc1ccc(-c2nc3ncccc3o2)cc1NC(=O)COc1ccc(C(C)C)cc1
7% | O=C(Nc1cc(Cl)cc2c1[nH]c1cnccc12)c1cccnc1
-2% | Cc1noc(C)c1C(=O)NCCCc1ccccc1
17% | COC(=O)C[n+]1cccc2ccccc21
-8% | CC1CCCN(C(=O)CN2C(=O)NC(C)(c3ccc4ccccc4c3)C2=O)C1 (stereo not drawn)
-8% | Cc1cc(C)c2c(C)c(C(=O)Nc3c(C)n(C)n(-c4ccccc4)c3=O)oc2c1
-5% | CC(C)OC(=O)CSc1nc2cccnc2n1C1CCCCC1
-6% | CCOC(=O)C1=C(COc2ccccc2)NC(=O)NC1c1ccc(Cl)cc1 (stereo not drawn)
5% | CC(=O)Nc1c(O)nc(SCC(=O)N2CCN(c3ccc(F)cc3)CC2)[nH]c1=O
-12% | CN1C(=O)CC(c2ccccc2)CC1=O
4% | Cc1cccc(NC(=O)C(=O)NCC(c2ccc3c(c2)OCO3)N2CCN(C)CC2)c1C (stereo not drawn)
29% | CSCCC(NC(=O)COc1ccccc1)C(=O)NCc1cccs1 (stereo not drawn)
4% | OC1(C#CCN2CCOCC2)CCCCC1
10% | CCOc1ccc(-c2c(C)nn3c(-c4ccccc4)c(C(=O)NCCOC)cnc23)cc1OCC
-6% | CCOC(=O)c1ccc(-n2c(-c3ccco3)nc3ccccc3c2=O)cc1
0% | COc1ccc(NC(=O)c2oc3ccccc3c2NC(=O)COc2ccccc2OC)c(OC)c1
3% | CCCOc1cccc(C(=O)NCCNC(=O)c2ccco2)c1
? | CCCC1=C(C(=O)OCC)C(c2cccs2)C(C#N)=C(N)O1 (stereo not drawn)
10% | O=C(COC(=O)c1sc2ccccc2c1Cl)NCC1CCCCC1
6% | CCOC(=O)c1sc(C)c2c1NC1(CCCCC1)NC2=O
-2% | Cn1nc(C(C)(C)C)c([N+](=O)[O-])c1C(=O)Nc1ccccc1
7% | Cc1ccc(-n2nc(C)c(NC(=O)CCl)c2C)cc1
6% | Cn1c(=O)c2c(nc(N/N=C/c3cccnc3)n2Cc2ccc(F)cc2)n(C)c1=O
-5% | N#Cc1ccc(CSc2nnc(-c3cccnc3)o2)cc1

3 compounds out of the list, sorted by SMILES length, low to high:
VDR inhibitor | SMILES
-5% | N#Cc1ccc(CSc2nnc(-c3cccnc3)o2)cc1
6% | CCOC(=O)c1sc(C)c2c1NC1(CCCCC1)NC2=O
? | CCCC1=C(C(=O)OCC)C(c2cccs2)C(C#N)=C(N)O1 (stereo not drawn)

The listing continues:
VDR inhibitor | SMILES
12% | CC(C)CCNC(=O)c1ccc2nc[nH]c2c1
4% | CCN(CC)S(=O)(=O)c1ccc2c(c1)nc(SCC(=O)N1CCOCC1)n2-c1ccccc1OC
-18% | CC(C)(C)NC(=O)C(=O)NNC(=O)c1cccc([N+](=O)[O-])c1
20% | COc1ccc(-c2n[nH]c(C)c2-c2ccccc2OC)c(O)c1
-7% | CCn1c(SCC(=O)c2ccc(O)c(O)c2)nnc1-c1ccccc1
14% | CCN(CC)C(=O)c1sc(NC(=O)c2ccco2)c(C#N)c1C
-4% | COc1ccc(OC)c2sc(NC(=O)CCS(=O)(=O)c3ccccc3)nc12
18% | Cn1c(NC(=O)c2ccccc2)nc2ccccc21
1% | CS(=O)(=O)c1ccc2nc(NC(=O)c3cccs3)sc2c1
-14% | COCCNc1nc2c(-c3cccc(C(F)(F)F)c3)nnn2c2ccccc12
4% | COc1ccc(Cl)cc1NC(=O)NCCc1c(C)nn(C)c1C
-22% | c1ccc(-c2ccc(-c3cn4c(n3)CCC4)cc2)cc1
8% | Cc1ccc(S(=O)(=O)N2CCCCC2)cc1NC(=O)CSc1nnnn1C
-11% | COc1ccc(C2CC(=O)c3cnc(NC(=O)c4ccco4)nc3C2)cc1 (stereo not drawn)
-5% | CCN1CCN(c2nc3c(C)cccn3c(=O)c2/C=C(\C#N)S(=O)(=O)c2ccc(C)cc2)CC1
-8% | Cc1nc(Nc2ccccc2Cl)sc1C(=O)Nc1ccccc1
4% | O=C(c1ccccc1NS(=O)(=O)c1ccc(Cl)cc1)N1CCc2ccccc21
8% | Cc1ccc(S(=O)(=O)N2CCSCCSCCSCCSCC2)cc1
-7% | CCCCC(O)(CCCC)C(=O)NN(C(=O)OC)c1ccccc1
-13% | C=CCSC1=NC(N)=C(C#N)C2(CCCCC2)C1C(N)=O (stereo not drawn)
? | Cc1nc([N+](=O)[O-])c(Br)n1CC(=O)c1ccc(Cl)cc1
-5% | Cn1c(-c2ccccc2)cc2c3no[n+]([O-])c3ccc21
-23% | CC(C)c1ccc(NC(=O)COc2ccc(F)cc2C(=O)c2cnn(-c3ccccc3)c2)cc1
13% | O=C(COc1ccc(/C=N/NS(=O)(=O)c2ccccc2)cc1)Nc1ccc(F)cc1
0% | CC1CC(C)(C)NC(=O)O1 (stereo not drawn)
-1% | O=C(CCCC(=O)N1CCCC1)N1CCCC1
-6% | O=S(=O)(NC1CCCC1)c1cccc(S(=O)(=O)N2CCC(n3nnc4ccccc43)CC2)c1
-9% | CCN1CCN(C(c2cccc(OC)c2)c2sc3nc(C)nn3c2O)CC1 (stereo not drawn)
19% | C=CCOc1c(Cl)cc(C2NC(=O)NC(C)=C2C(=O)OC)cc1Cl (stereo not drawn)
-3% | C[C@H]1CN=C(Nc2ccccc2)N1CCCC1CCCCC1
-4% | COc1ccccc1CSc1nc2n(n1)C(c1ccccc1)C(C(=O)Nc1ccc(C)cc1)=C(C)N2 (stereo not drawn)
21% | O=C(c1ccc(CS(=O)Cc2ccccc2Cl)o1)N1CCN(C2CCCCC2)CC1 (stereo not drawn)
-2% | O=C(NNc1cccc(Cl)n1)c1ccc(Cl)nc1
17% | CCCCN(CCCC)/C(N)=N/c1nc(C)cc(C)n1
13% | CC(C)(C)NC(=O)CSc1nncn1NCc1c(Cl)cccc1Cl
0% | COc1cccc(NC(=O)c2ccccc2-c2nc(-c3ccccc3)no2)c1
11% | Cc1ccccc1CNC(=O)c1ccc(Cn2c(SCc3cccc(F)c3)nc3cccnc32)cc1
8% | COc1ccc(Oc2nnnn2-c2ccccc2)cc1
9% | Nc1nc[nH]c(=O)c1N=Cc1ccccc1
-9% | Cc1ccc(Cn2nc(C)c(NC(=O)c3cc(-c4ccc5c(c4)OCO5)on3)c2C)cc1
-2% | Cc1ccc(C)c(N2CCN(C(=O)CCc3c(C)nn(-c4ccc(N5CCCC5)nn4)c3C)CC2)c1
-4% | O=C(CSc1nc(-c2ccco2)cc(C(F)(F)F)n1)N1CCN(c2cccc(Cl)c2)CC1
7% | CCOc1ccc(NC(=O)/C(C#N)=C\c2ccc(-c3ccc(Cl)cc3)o2)cc1
21% | CS(=O)(=O)N1CCCc2cc(C(=O)Nc3cccc(C(F)(F)F)c3)ccc21
-7% | CCOc1ccc(NC(=O)CN(C)C(=O)CCSc2ccc(F)cc2)cc1OCC
-7% | O=C(NCc1nnc2c3ccccc3c(-c3ccccc3)nn12)c1ccc(Cl)cc1
12% | Cc1ccc(CSc2ccc(S(=O)(=O)N3CCOCC3)cn2)cc1
-6% | N=c1c(C(=O)NCC2CCCO2)cc2c(=O)n3ccccc3nc2n1Cc1cccnc1 (stereo not drawn)
-24% | CCn1cc(CNCc2cn(-c3ccccc3C)nc2-c2ccc(OC)c(F)c2)cn1
-18% | CCOc1ccc(C(=O)Nc2ccccc2N2CCOCC2)cc1
5% | COc1ccc(CCNC(=O)Cn2nc(C)c3c(C)n(-c4ccc(C)cc4)nc3c2=O)c(OC)c1

The list is partial (hit frequency here may not be typical).
